Source: PubChem
ClpP mod = qHTS Assay for Activators of ClpP; purified B. subtilis ClpP, FRET peptide cleavage, 20 min; Potency, µM (titrated, usually from 57.5 µM), inactives show at the top dose activity change, negative = active; hit rate 1.9% among 340,000; AID 651965, 2013; active = well fitted falling curve with a large enough effect; inconclusive = small, poorly fitted or top-dose-only effect; inactive = no such curve, though single readings can be large or run the other way; note: potency is the fitted concentration of half-maximal effect; the source files actives as falling curves though it sought activators and does not explain the sign; nearly all actives have a fitted effect of over 65% in size; many hits overshoot -100%
Target sequence (P80244 whole entry, looked up): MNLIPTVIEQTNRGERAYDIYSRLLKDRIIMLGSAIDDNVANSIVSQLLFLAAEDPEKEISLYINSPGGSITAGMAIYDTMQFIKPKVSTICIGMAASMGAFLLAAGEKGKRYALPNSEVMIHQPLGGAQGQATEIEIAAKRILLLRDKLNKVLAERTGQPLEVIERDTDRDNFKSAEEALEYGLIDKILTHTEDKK
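Buffer: 100 mM Tris/HCl pH8, 100 mM KCl, 0.05% low protease BSA, 2.5% glycerol, 0.01% Tween-20. ClpP 10 microg/mL final; 20 min RT; delta FRET normalized to ADEP and DMSO controls.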
gsp antag = qHTS for Antagonists of gsp, the Etiologic Mutation Responsible for Fibrous Dysplasia/McCune-Albright Syndrome: qHTS. gsp-mutant cells, cAMP HTRF, 30 min; control for the full effect not named in the record. Potency, µM (highest dose often 76.9 µM), for inactives: at the top dose activity change, negative = inhibition, actives largely listed as inhibitors. hit rate 0.4% among 340,000. AID 624288, 2012; active = falling curve of any shape with a large fitted effect; inconclusive = falling curve, mostly with a smaller effect; inactive = flat or rising curve; cell line not stated here;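 note: intracellular cAMP measured with PDE inhibitor Ro 20-1724 present during compound exposure; potency is the fitted concentration of half-maximal effect; % is set by controls: 0 for no effect and ±100 for the full control effect; nearly all actives have a fitted effect of over 65% in size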
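HTRF cAMP read-out (cAMP-d2 plus anti-cAMP antibody-K in lysis buffer, 30 min RT). Before lysis, cells are exposed to compounds with […] for 30 min at 37C in DPBS containing Ca/Mg, BSA and Tween 20.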
Sfp inh = qHTS Assay for Inhibitors of Bacillus subtilis Sfp phosphopantetheinyl transferase (PPTase); hit rate 3.5% among 310,000; AID 1490, 2009; Biochemical Sfp PPTase activity, qHTS; 4'-phosphopantetheinyl transferase ffp (Bacillus subtilis), Q9F4F7; Potency, µM, for the others: max response, negative = inhibition, most hits filed as inhibitors; active = well fitted inhibition curve with a large enough effect; inconclusive = small, poorly fitted or top-dose-only effect, or another doubt; inactive = no such curve, though single readings can be large or run the other way;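 note: the enzyme is Sfp with the accession as filed and its product quenches rhodamine fluorescence; potency is the fitted concentration of half-maximal effect; 0% = enzyme reaction without inhibitor and -100% = no enzyme wells; top concentration of the series not given in the record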
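Fluorescence-quenching assay: 15 nM Sfp-PPTase preincubated 15 min at room temperature with compound, then 5 uM rhodamine-CoA and 12.5 uM BHQ-2-labelled YbbR peptide added. Fluorescence (ex 525/em 598 nm) read at start and after 30 min; difference gives rate.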
CtBP-E1A inh = qHTS Assay for Inhibitors of the CtBP/E1A Interaction; AID 651724, 2012; hit rate 0.49% among 340,000; activity change, % (no concentration beside the values); CtBP / adenovirus E1A interaction (AlphaScreen); AlphaScreen GST-E1A/His-CtBP binding, 1536-well; hits give low values; control for the full effect not named in the record; in the data active means activity change below about -65%; inconclusive means about -30% to -65%; inactive means above about -30%; note: % is set by controls: 0 for no effect and ±100 for the full control effect; compound concentration not given in the record
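AlphaScreen with 125 nM GST-E1A and 125 nM His-CtBP (5X stocks) in Tris pH 8.0, 300 mM NaCl, BSA, Tween 20, TCEP. Compounds preincubated 2 h at 37 deg C, then glutathione donor/nickel acceptor beads added for 1 h at 37 deg C in dark.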
Menin-MLL FL inh = qHTS Assay for Inhibitors Targeting the Menin-MLL Interaction in MLL Related Leukemias: Competition With Fluorescein Labeled MLL-derived Peptide. AID 1766, 2009. Fluorescence polarization, fluorescein-MLL peptide displacement from menin. FP activity change, % at 61.4 µM. 290,000 tested, under 10 active; inconclusive = falling polarisation curve, or a change in total fluorescence; inactive = total fluorescence flat and polarisation flat or rising; no compound was filed as active; the % refers to the polarisation; negative = inhibition;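 note: % of control where 0% means no effect; inhibitors lower the polarisation; unlabelled MLL peptide was the positive control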
TRPV1 PAM = HTS Assay for Compounds that Act as Potentiators of the Vanilloid Receptor 1; Transient receptor potential cation channel subfamily V member 1 (Homo sapiens), Q8NER1; TRPV1-expressing cells, Fluo-8 calcium influx, capsaicin EC20 potentiation; host cell line not named in the record; control for the full effect not named in the record; AID 540277, 2011; hit rate 0.02% among 320,000; potentiation, % at 8.33 µM; active means potentiation above 80%; inconclusive means 30% to 80%; inactive means below 30%; note: 0% is about no effect
Target sequence (Q8NER1 whole entry, looked up): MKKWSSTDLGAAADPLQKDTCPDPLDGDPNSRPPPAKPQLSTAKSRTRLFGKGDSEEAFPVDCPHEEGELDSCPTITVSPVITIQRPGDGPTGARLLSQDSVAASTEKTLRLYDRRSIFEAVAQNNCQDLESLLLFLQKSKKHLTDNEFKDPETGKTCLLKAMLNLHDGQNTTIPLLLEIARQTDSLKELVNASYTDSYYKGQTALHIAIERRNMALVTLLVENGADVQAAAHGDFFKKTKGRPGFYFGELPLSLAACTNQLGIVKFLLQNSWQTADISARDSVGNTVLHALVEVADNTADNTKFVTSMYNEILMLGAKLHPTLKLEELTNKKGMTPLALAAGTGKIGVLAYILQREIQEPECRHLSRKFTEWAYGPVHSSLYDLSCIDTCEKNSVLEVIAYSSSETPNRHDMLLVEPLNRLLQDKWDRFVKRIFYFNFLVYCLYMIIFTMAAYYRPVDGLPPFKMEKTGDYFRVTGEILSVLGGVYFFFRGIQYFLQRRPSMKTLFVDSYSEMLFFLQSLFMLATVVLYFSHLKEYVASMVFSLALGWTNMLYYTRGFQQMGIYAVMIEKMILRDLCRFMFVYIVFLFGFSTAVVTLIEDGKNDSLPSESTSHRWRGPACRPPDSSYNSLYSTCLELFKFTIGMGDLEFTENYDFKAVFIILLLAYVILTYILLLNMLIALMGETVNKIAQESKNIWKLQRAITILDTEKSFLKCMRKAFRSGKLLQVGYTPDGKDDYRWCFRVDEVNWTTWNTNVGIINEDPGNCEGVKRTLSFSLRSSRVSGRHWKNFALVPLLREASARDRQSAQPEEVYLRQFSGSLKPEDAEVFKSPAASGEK
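Fluo-8 calcium influx in TRPV1-expressing cells, kinetic read (ex 480/em 520 nm). Compound added and read 3 min for agonist activity, followed by capsaicin at EC20 final and 2 min further read for enhancement.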
gsp ag = qHTS for Agonist of gsp, the Etiologic Mutation Responsible for Fibrous Dysplasia/McCune-Albright Syndrome: qHTS | gsp mutant cells, cAMP HTRF, 30 min; control for the full effect not named in the record | Potency, µM (highest dose often 76.9 µM), for the others: at the top dose activation (cAMP increase), actives largely listed as activators | hit rate 0.13% among 340,000; active = well fitted activation curve with a large enough effect; inconclusive = small, poorly fitted or top-dose-only effect, or another doubt; inactive = no such curve, though single readings can be large or run the other way; cell line not stated here;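 note: phosphodiesterase inhibitor Ro 20-1724 added with compounds to block cAMP breakdown; potency is the fitted concentration of half-maximal effect; nearly all actives have a fitted effect of over 60% in size; about a fifth of the inactives were tested at one dose only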
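Cells stably selected in G418 were plated at 2000/well, grown 16-24 hr, then given compounds in DMSO with the PDE inhibitor […] (300 uM solution added) for 30 min at 37C; cAMP was read by HTRF.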
Starred values were filed as active, the others as inactive; ? = inconclusive; . = no result given; & = joins results of further samples; [ ] = remark or other dose. Outcome played no part in choosing rows. About 5.3% of those tested had a hit in this group.

SMILES | ClpP mod | gsp antag | Sfp inh | CtBP-E1A inh | Menin-MLL FL inh | TRPV1 PAM | gsp ag
c1ccc(Sc2ncccn2)nc1 | -2.3% | 6% | -28% | . | -13 | 8 | -22%
COc1ccc(CCNc2ccc([N+](=O)[O-])cn2)cc1 | -4.2% | 7% | 3% | -29 | -0.3 | -1 | 2%
Cn1c(=O)n(C)c2cc(/C=N/NC(=O)c3ccc(Cl)cc3)ccc21 | -5.1% | 3% | -2% | -15 | 2.3 | -3 | ?
CCOC(=O)N1CCN(C(=O)/C(=C/c2ccccc2OC)NC(=O)c2ccccc2)CC1 | -2.8% | -2% | 9% | 1 | -0.5 | -22 | -43%[inhibitor]
CCN(CC(=O)Nc1c(F)cccc1F)C(=O)CCN1C(=O)C2CC=CCC2C1=O (stereo not given) | . | 7% | . | -2 | . | 6 | 18%[15.4 µM]
CCNc1nc(N)c(C(=O)c2ccc(Cl)s2)s1 | 0.4% | 11% | 6% | -14 | -0.3 | -18 | -60%[inhibitor]
Nc1ccc(Oc2ccc(Br)cc2)cc1 | 0.1% | 12% | 31%[activator] | -1 | 2.9 | -4 | -8%[15.4 µM]
COc1ccc(N2CC(C(=O)NCCC3=CCCCC3)CC2=O)c(OC)c1 (stereo not given) | 1.5% | 8% | . | -8 | . | -3 | -14%
O=C(C1CCCN(c2ncnc3c2nc2n3CCCCC2)C1)N1CCN(c2ccccc2)CC1 (stereo not given) | 2.4% | 1% | -3% | . | . | -22 | -6%
CCOC(=O)c1c(NC(=O)COC(=O)c2ncc(Cl)c(Cl)c2Cl)sc(C(=O)N(C)C)c1C | 4.9% | 2% | . | -4 | . | 9 | -2%
CCCc1cc(C(=O)Nc2ccc(F)c(Cl)c2)no1 | . | -4% | 7% | 1 | 1.7 | -8 | -5%
CCOc1cccc(-c2cc(-c3n[nH]c(=S)n3CC)c3ccccc3n2)c1 | 0.8% | -17% | ? | -26 | -0.5 | 3 | -22%
COc1ccc(NC(=O)CN(C)S(=O)(=O)c2ccc3c(c2)CCCN3C(C)=O)cc1 | -1.7%&-4.5% | 1% | 13% | 10 | -0.3 | -2 | 17%
CCC(=O)Nc1nc2c(s1)COc1ccccc1-2 | -1.5% | -9% | -3% | -3 | 1.0 | -22 | -35%[inhibitor]
COc1cc(C(=O)OCC(=O)c2ccc(S(=O)(=O)N3CCCCC3)cc2)cc(OC)c1OC | -1.5% | -15% | . | 3 | . | -5 | ?
O=C(N/C(=C/c1ccc(F)cc1)C(=O)N1CCOCC1)c1ccccc1 | 0.8% | -4% | 9% | 15 | -2.3 | 15 | ?
CN1/C(=C\P(=O)(N(C)C)N(C)C)C(C)(C)c2ccccc21 | -1.0% | -4% | -10% | -3 | ? | -5 | -39%[inhibitor]
COc1ccc(OC)c(CCNC(=O)CCn2nc(C)c3c(C)n(-c4ccccc4)nc3c2=O)c1 | -0.8% | -8% | 9% | 0 | . | -1 | ?
O=C(NCc1ccccc1)c1cnc(-c2ccccn2)nc1C(F)(F)F | 1.1% | -6% | 2% | -1 | 1.1 | -3 | -8%
CC(=O)N1C(=O)NC(c2ccccc2)=C([N+](=O)[O-])C1c1ccccc1 (stereo not given) | -1.5% | 7% | 7% | -14 | -1.4 | 3 | 2%[15.4 µM]
O=c1[nH]n(-c2ccccc2)c(=O)cc1Cl | . | 11% | . | 6 | . | . | -4%
O=C(O)c1ccccc1SCc1ccc2c(c1)OCO2 | -2.4% | -18% | -6% | 12 | 1.3 | -8 | 12%
COc1ccc(OCCN(C)Cc2c(O)ccc3ccccc23)cc1 | . | -12% | -8% | -2 | -1.9 | 1 | -8%
COc1cccc2sc3cc(NCC[C@@H]4CCCN4C)ccc3c(=O)c12 | 4.1% | 11% | . | -21 | . | . | .
COc1ccc(OCCc2nnc(N)s2)cc1 | 2.8% | 8% | 12% | 0 | 8.3 | -4 | 20%
COCCCN(C(=O)Cc1ccc(S(=O)(=O)N2CCOCC2)s1)c1c(N)n(Cc2ccccc2)c(=O)[nH]c1=O | -2.6% | 6% | . | -1 | . | . | 18%
Cc1cc(C)c(C)c(S(=O)(=O)N2CCN(C(=O)c3cc(=O)[nH]c4ccccc34)CC2)c1C | -13% | -31% | 7% | -11 | -0.7 | 10 | 3%
O=C(N[C@@H](c1ccccc1)[C@@H]1C[C@H]1C(=O)O)OCc1ccccc1 | 1.5% | 4% | 8%&20% | 1 | -2.5&0.2 | -9 | .
COP1(=O)C[C@@H](O)[C@@H](O)[C@@H](COCc2ccccc2)O1 (stereo not given in full) | 0.4% | 5% | 18% | 0 | 0.8 | -2 | .
COc1ccc(CC(=O)N/N=C(\C)c2cccnc2)cc1OC | 0.4% | 15% | 11% | 5 | 2.1 | 0 | 2%
CN(CC(=O)NCc1ccccn1)S(=O)(=O)c1ccc(F)cc1 | 0.9% | -3% | 7% | -26 | -3.4 | 5 | -6%[15.4 µM]
CN(C)c1ccc(NS(=O)(=O)c2ccc(-c3csnn3)cc2)cc1 | . | -37% | 9% | ? | 7.0 | -20 | -3%
Fc1cc(F)c(F)c(SCn2cc(Br)cn2)c1F | 2.4% | 15% | . | 15 | . | -16 | 1%[15.4 µM]
CCOC(=O)Cc1csc(NC(=O)Nc2ccc(OC(F)(F)F)cc2)n1 | 1.6% | -11% | 8% | 4 | 2.8 | . | -1%[15.4 µM]
CC(C)CNC(=O)CN(c1ccccc1)S(=O)(=O)c1ccccc1[N+](=O)[O-] | . | 3% | 6% | 2 | -14 | -4 | 26%[15.4 µM]
CN(C)CCCNCCCCNC(=O)/C=N/O | 0.9% | 9% | -15% | 3 | -0.6 | -11 | -26%
Cc1ccccc1-n1ncc2c1CC(C)(C)CC2NC(=O)CCC1=NNC(=O)CC1 (stereo not given) | 3.4% | 13% | 7% | 4 | . | -1 | ?
COCCNC(=O)C1Cc2cc(S(=O)(=O)N3CCCC3)ccc2N1C(C)=O (stereo not given) | 0.4% | 7% | 11% | 17 | . | 7 | 5%
O=C1NC(NS(=O)(=O)c2ccc(Cl)cc2)(C(F)(F)F)C(=O)N1CCc1ccccc1 (stereo not given) | -3.8% | -14% | -6% | -17 | 2.1 | 10 | ?
c1ccc(Nc2ccc(-n3ccnc3)nn2)cc1 | 0.7% | -2% | 8% | . | 0.0 | 5 | 25%
CCCn1nnnc1SCC(=O)c1ccc(NC(C)=O)cc1 | 0.8% | -4% | 79µM* | -2 | -6.6 | -4 | -19%
COc1ccc(N2C(=O)C3CCCN3C2c2ccc(C)o2)cc1Cl (stereo not given) | 0.3% | -9% | 11% | 10 | -0.5 | 9 | 20%
C=CCN1C=C(C(C)=O)C(=O)CC1 | 0.7% | 8% | . | 6 | . | . | .
COCc1cc(Sc2ccc(Cl)cc2)nc(-c2ccccc2)n1 | -1.7% | 9% | -4% | 18 | -1.5 | 5 | 7%
CN(C)c1ccc(C(=O)N/N=C/c2cc(Br)cc(Br)c2O)cc1 | . | ? | ? | -15 | ? | -8 | 28%[15.4 µM]
CC(=O)N1c2ccc(S(=O)(=O)NCC3CCC(C(=O)NC4CCCCC4)CC3)cc2CC1C (stereo not given) | 1.9% | 4% | 0% | . | -0.9 | 2 | -29%
O=C(Oc1ccc(C(=S)N2CCOCC2)cc1)c1cccc(Cl)c1 | 1.2% | 13% | 40µM* | 0 | 0.0 | -6 | -7%[15.4 µM]
O=C(O)CCC(=O)c1ccc2c(c1)CCCC2 | -2.8% | -16% | 26% | -7 | 0.1 | 9 | 1%[15.4 µM]
Cc1nc2ncnn2c(C)c1CCC(=O)N1CCOCC1 | 0.0% | 17% | 10% | 2 | 2.5 | 6 | ?
C/C(Cl)=C/Cc1c(C)[nH]c2c(ccc3ccccc32)c1=O | -9.6% | 5% | -7% | . | -6.9 | -9 | 23%
C=CCC(NCCCO)c1cccc(OC)c1OC (stereo not given) | -2.4% | 8% | 1% | 2 | -0.1 | 5 | -12%
COc1ccc(CNS(=O)(=O)c2ccc(F)c(C(=O)Nc3ccccc3OC)c2)cc1 | 64% | -4% | 16% | 6 | -3.2 | -1 | 5%
O=C(Nc1ccc2nn(-c3ccccc3)nc2c1)c1ccco1 | 32µM* | 4% | 2% | 3 | -0.5 | 7 | -36%[inhibitor]
N#CCC(=O)Nc1ccc(C(=O)OCC(=O)Nc2ccc3ccccc3c2)cc1 | -1.2% | -3% | . | 0 | . | 3 | -4%
NC(=S)N/N=C1/CCSc2ccc3ccccc3c21 | . | 12% | 6% | . | -5.2 | 1 | -7%[15.4 µM]
C=CCc1ccccc1OCC(=O)N/N=C/c1ccc(OC(C)=O)cc1OC(C)=O | 26% | -4% | 19% | ? | 3.7 | 5 | -2%
COC(=O)C1=C(C)Nc2ncnn2C1c1ccc(OC(=O)c2ccccc2)cc1 (stereo not given) | -6.0% | 1% | 11% | 12 | 1.1 | -21 | -13%
Nc1nc2cc(S(=O)(=O)N3CCOCC3)ccc2o1 | . | 8% | . | -2 | . | . | 2%
O=C(C1CCCO1)N1CCN(C(=S)Nc2ccccc2Cl)CC1 (stereo not given) | -4.5% | -10% | 0% | 0 | 5.4 | 17 | -28%

Entries of single compounds as entered above. Values in the order: ClpP mod	gsp antag	Sfp inh	CtBP-E1A inh	Menin-MLL FL inh	TRPV1 PAM	gsp ag
Record of `NC(=S)N/N=C1/CCSc2ccc3ccccc3c21` : .	12%	6%	.	-5.2	1	-7%[15.4 µM]
Record of `C=CCc1ccccc1OCC(=O)N/N=C/c1ccc(OC(C)=O)cc1OC(C)=O` : 26%	-4%	19%	?	3.7	5	-2%
